Bead autofluor: flagged as autofluorescent in microsphere protease counterscreen; compound autofluorescence counterscreen, microsphere flow cytometry; hits give high values; fluorescence intensity (concentration not given with the values); 3.1% of 360,000 active; AID 624483;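 active = at least 3 SD above the mean of all compounds, about 16000 in these data; inconclusive = too few beads counted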;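 also: 100 nL of 1 mM stock went into each well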
BJeLR lethal: kills HRASV12-expressing BJeLR cells; BJeLR (HRASV12) viability, CellTiter-Glo ATP luminescence, 48 h; reference of the scale not given here; inhibition, % (no concentration beside the values); 0.17% of 300,000 active; AID 1554;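 active = replicate mean above 50%; inconclusive = above 50% but judged a plate artefact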;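 also: 50 nL library stock added to about 25 µL; numbers are from one replicate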
Sa ugtP lethal: growth inhibition of S. aureus ugtP deletion strain. S. aureus RN4220 ugtP deletion, OD600 growth, 16 h; some inactives read as strong as hits. growth inhibition, % (test concentration not listed). 0.54% of 330,000 active;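 active = z-score under -3 and OD600 up to 0.15 on both plates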;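 also: plate controls were untreated wells for no effect and antibiotic for full effect; wells of about 80 µL received 100 nL stock; the first replicate is given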
PrP 5UTR inh: inhibition of PrP 5' UTR reporter expression; cell-based PrP 5' UTR mRNA reporter, plate reader; 0.35% of 340,000 active; inhibition, % (no concentration beside the values);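 active = every replicate at 50% or more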;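 also: 0 = median of the neutral control wells; tested in H4 reporter cells; numbers are from one replicate; inactives centre near -14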
RN4220 kill: S. aureus RN4220 growth inhibition. OD600, 16 h. inhibition, % (no concentration beside the values). 0.33% of 330,000 active;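 active = z-score of -3 or lower and OD600 up to 0.18 on both plates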;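 also: plate controls were untreated cells for no effect and reference antibiotic for full effect; stock transfer was 100 nL into about 80 µL; one replicate is shown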
Mtb hypoxia rep: Mtb hypoxia fluorescent reporter inhibition. M. tuberculosis hypoxia-regulated fluorescent reporter, fluorescence. fluorescence inhibition, % (concentration not given with the values). 0.1% of 300,000 active. AID 1159583;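 active = 35 to 45% if threefold the growth effect, above 45% if 1.5-fold the growth effect; inactive = the rest, general growth blockers included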;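 also: wells of about 50 µL received 100 nL stock; 0% = vehicle wells and 100% = reference inhibitor wells; whole bacteria with a GFP reporter of the hypoxia response; strong numbers were not always called active; many hits fall short of the cut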
Mtb hypoxia rep growth: second read-out of Mtb hypoxia rep, no call of its own (marks repeat the call); growth inhibition, %; measured here: M. tuberculosis growth (absorbance);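 0% = vehicle and 100% = reference antibiotic; read after six days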
* marks the source's active call; other numbers are inactive results; ? = inconclusive; / = no result given.

SMILES	Bead autofluor	BJeLR lethal	Sa ugtP lethal	PrP 5UTR inh	RN4220 kill	Mtb hypoxia rep	Mtb hypoxia rep growth
O=S(=O)(c1ccc(Cl)cc1)N1CCN(c2ccc(N3CCOCC3)nn2)CC1	10690	9	-3	-28	2.5	3	3
CN1CCc2c(sc3c2C(=O)NC(/C=C/c2ccco2)N3)C1 (stereo not given)	12632	-1	-2	-14	3.5	8	4
Cc1nn(-c2ccccc2)c(OC(=O)c2cccs2)c1S(=O)(=O)c1ccc([N+](=O)[O-])cc1	16331*	-7	-10	3	-4.3	-12	10
CCCCc1ccc(NC(=S)N2CCCC(C)C2)cc1 (stereo not given)	4706	7	-2	-8	-1.2	-2	10
CN(C)c1ccc(/C=N/NC(=O)c2nnn(-c3nonc3N)c2COc2ccc(F)cc2)cc1	3819	-9	/	-5	/	/	/
CCCN1CCN(CCCNC(=O)Cn2nc(-c3ccc(Cl)cc3)ccc2=O)CC1	2712	-4	0	-4	-4.6	-8	-4
O=C(CSc1nnc(Cc2cccs2)n1-c1ccccc1)NC1CCCCC1	/	-17	-8	-3	0.8	13	0
COCc1c(Br)c(C)[nH]c(=O)c1C#N	3390	11	5	-15	5.0	/	/
Cc1ccn2cc(-c3cccc(NS(C)(=O)=O)c3)nc2c1	2081	-4	-3	-64	3.1	-1	9
O=C(CNC(=O)C1CCCCC1)Nc1ccccc1Cl	2342	8	8	-18	0.4	-6	1
N/C(=N\OC(=O)c1ccc(Br)o1)c1cccnc1	3286	1	7	-48	5.2	8	2
C/C(=N/NC(=O)c1ccco1)c1cccnc1	1890	0	/	-12	/	/	/
O=C1/C(=C/c2cccs2)CCc2ccccc21	3883	-1	19	-39	15	20	11
CCCCN(C)C(=O)CCC(=O)NNc1nc2ccccc2c2nc(C)nn12	2126	3	2	-14	5.3	-6	-8
CSc1nc2ccc(NC(=O)c3nn(C(C)C)c(=O)c4ccccc34)cc2s1	2071	-2	-6	-19	2.5	-3	7
O=C(CSc1nc2ccccc2o1)NCc1ccc2c(c1)OCO2	6758	8	0	-12	-7.0	5	7
NC(=O)C1CCCN(C(=O)c2ccc3c(c2)NC(=O)CS3)C1 (stereo not given)	?	/	5	-1	5.9	-2	1
CC(C)CC(NC(=O)c1nc[nH]c1C(=O)NC(CC(C)C)C(=O)OCc1ccccc1)C(=O)OCc1ccccc1 (stereo not given)	/	/	2	/	6.7	4	6
Cc1cc2cc(C)c(NCCNC(=O)c3cccc(F)c3)nc2cc1C	2196	-3	-10	-11	-13	-30	-16
COc1ccc2oc3cc(C)[n+]([O-])c(-c4ccc(Br)cc4)c3c2c1	7040	5	6	14	-4.1	-12	-6
Cc1cc(C)c(NC(=O)CNC(=O)CSc2nnc(N)s2)c(C)c1	5866	0	7	-26	1.4	5	-1
CC(/C=C/c1ccccc1F)=NNC(=O)c1cccc(F)c1	/	/	0	/	1.5	0	13
CCOc1ccc(NC(=O)CN(C)C(=O)C2CSC3(C)CCC(=O)N23)cc1OCC (stereo not given)	3408	/	1	-8	2.7	4	4
CSc1oc(-c2ccco2)nc1S(=O)(=O)c1ccccc1	6818	-5	-1	-24	-7.5	4	10
Cc1ccc2nc(SCC(=O)O)nc(C)c2c1	4380	-5	-2	0	-1.7	5	0
COc1cccc(-c2c(C(=O)NN=C(C)c3ccco3)nnn2-c2nonc2N)c1	/	/	-3	/	2.5	-7	-8
CC1(C)CC(=O)N(CC(=O)O)c2ccccc2S1(=O)=O	4540	-7	-3	-15	3.3	/	/
O=C(CCC(=O)N1CCN(S(=O)(=O)c2ccc3ccccc3c2)CC1)NCC(F)(F)F	4245	-16	/	-32	/	/	/
C#CCOCCOCCOCCNc1nc(N2CCN(C(=O)C(CCC(=O)O)n3cc(C(N)CO)nn3)CC2)nc(N2CCN(C(=O)C(CCC(=O)O)n3cc(C(N)C(C)CC)nn3)CC2)n1 (stereo not given)	/	/	-3	/	1.7	5	6
O=C(CCNC(=O)c1ccc(Br)o1)NCc1ccccn1	24852*	-8	9	-1	5.5	-4	-5
O=C(CNC(=O)c1ccc(Cl)cc1Cl)OCC(=O)N1CCCC1	?	/	4	4	4.4	2	-1
O=C(CSc1nc2ccccc2c(=O)n1CC1CCCO1)NCCc1ccccc1 (stereo not given)	5587	-12	3	11	2.6	5	5
CC(CC(=O)NC1CCCC1)=NNC(=O)C1CCCCC1	/	/	6	/	2.4	4	2
COc1ccc(-c2[nH]ncc2CNC(C)Cc2cccc(C)n2)cc1F (stereo not given)	4109	4	4	-37	3.1	10	1
CNC(=S)N(Cc1ccc2c(c1)OCO2)C1CC(=O)N(c2ccc(F)cc2)C1=O (stereo not given)	2125	1	-9	-10	1.7	/	/
O=C(CNC(=S)N(Cc1ccccc1)Cc1cccnc1)NC1CC1	2545	-2	-3	-38	0.9	-4	12
O=C(Nc1ccccc1C(=O)NC1CCCC1)NC1CCCC1	9175	2	-10	-12	5.9	-1	5
O=C(c1cc(-c2ccccc2)nc2ccccc12)N1CCOCC1	12454	2	-1	-4	2.6	6	-4
O=C(O)C(Cc1cccs1)c1cccs1 (stereo not given)	3672	/	-1	-6	2.3	-2	0
Fc1cccc(Cl)c1/C=C/c1cnc2ccccc2n1	3830	20	0	21	2.7	8	8
CCOC(=O)c1cc(-c2ccc3c(c2)OCO3)nc2onc(C)c12	?	2	-12	-13	6.1	11	5
O=S(=O)(Cc1ccccc1)N1CCN(c2ncccn2)CC1	5849	-5	7	-23	1.9	9	16
CNc1ccccc1C(=O)OCC(=O)N1CCN(c2ccc(OC)cc2)CC1	4135	9	/	-9	/	/	/
Cc1cc(C)n(-c2nc(NCCCN(C)C)c3c4c(sc3n2)CCCC4)n1	/	6	-2	/	-1.3	15	13
CCOC(=O)N1CCN(CC(O)COCc2cc(OC)c(OC)c(OC)c2)CC1 (stereo not given)	1984	-6	0	-5	3.3	6	3
CCN(CC(=O)Nc1ccc(NC(C)=O)cc1)C(=O)c1ccc(C(=O)c2ccccc2)cc1	2948	/	8	-2	3.6	12	6
COc1ccc(/C(C)=N/Nc2nncc3ccccc23)cc1	3602	-12	/	-73	/	/	/
COc1ccc(N/C=C\C(=O)c2ccc3c(c2)OCO3)cc1	3221	-12	-6	-113	6.4	/	/
NC(=O)c1cc(C(=O)c2cccc(Cl)c2Cl)c[nH]1	4816	7	-1	-30	-0.7	-2	-1
COc1ccc(C(C)=NNc2ccccc2Cl)c(O)c1	/	/	20	/	7.6	9	1

2 records picked at random from those above:
SMILES	Bead autofluor	BJeLR lethal	Sa ugtP lethal	PrP 5UTR inh	RN4220 kill	Mtb hypoxia rep	Mtb hypoxia rep growth
C/C(=N/NC(=O)c1ccco1)c1cccnc1	1890	0	/	-12	/	/	/
CNc1ccccc1C(=O)OCC(=O)N1CCN(c2ccc(OC)cc2)CC1	4135	9	/	-9	/	/	/

Other entries follow.
SMILES	Bead autofluor	BJeLR lethal	Sa ugtP lethal	PrP 5UTR inh	RN4220 kill	Mtb hypoxia rep	Mtb hypoxia rep growth
CCCC(=O)N(c1ccc2oc(=O)sc2c1)S(=O)(=O)c1cccs1	4706	/	-5	-20	-6.6	/	/
COc1ccc(Nc2nccc(-c3cccc(N)c3)n2)cc1	4102	12	7	-45	0.3	3	4
Cc1occc1C(=O)NNC(=O)c1ccc(Br)o1	4416	1	11	-10	5.4	-3	-6
Cc1ccccc1NC(=O)C(Cc1ccccc1)n1cccc1 (stereo not given)	4570	-1	0	-4	5.5	-1	4
NC(=O)Cn1c(=O)oc2ccccc21	19740*	0	-5	-53	7.0	4	16
CCOC(=O)CN1C(c2ccc(O)cc2)Nc2ccc(Br)cc2C1c1ccccc1 (stereo not given)	1946	6	-18	-21	-0.2	2	0
CCCC(C)NC(=S)NC(=O)c1cc(S(=O)(=O)N2CCOCC2)ccc1C (stereo not given)	2533	1	1	-19	-1.7	0	1
N#Cc1ccc(NC(=S)NC(=O)CCc2ccc(S(=O)(=O)N3CCOCC3)cc2)cc1	4395	0	15	-17	3.4	5	12
O=C(CCCNS(=O)(=O)c1cccs1)N1CCN(c2cccc(Cl)c2)CC1	3833	4	-2	-10	-1.4	2	-1
O=[N+]([O-])c1ccc(Nc2nc(NCCO)nc(N3CCCC3)n2)cc1	2331	-8	77	-4	56	11	7
Cc1c(NC(=O)NCCN2C(=O)C3C4C=CC(C4)C3C2=O)c(=O)n(-c2ccccc2)n1C (stereo not given)	6911	-4	7	-4	3.5	/	/
CS(=O)(=O)Nc1ccc2c(c1)OCC(=O)N2Cc1ccccc1	3937	-3	-4	-7	-3.0	-10	7
O=C(OCN1C(=O)c2ccccc2C1=O)c1ccco1	2816	-4	-5	-6	0.3	-4	-4
COC(=O)CC1SC(=O)NC1=Nc1ccccc1 (stereo not given)	23324*	4	-3	-18	1.8	13	9
CN(C)CCN(C(=O)c1ccc(N2C(=O)CCC2=O)cc1)c1nc2cc3c(cc2s1)OCCO3	/	-11	2	/	1.8	9	2
NC(=O)c1oc2ccccc2c1NC(=O)CN1CCCCC1	8246	4	9	-3	7.9	16	9
O=C(c1ccncc1)N(Cc1ccccc1)Cc1nc2ccccc2c(=O)[nH]1	3101	-2	1	-7	1.5	/	/
COc1ccc(-c2csc3ncnc(N4CCN(S(=O)(=O)c5cccs5)CC4)c23)cc1	5522	0	-9	-9	4.4	-1	2
COc1cccc(-c2onc3ccc(C(C)=O)cc23)c1	3940	-1	6	-15	11	-5	10
Cc1cccn2c(=O)c3cc(C(=O)N4COCC4(C)C)n(C)c3nc12	?	0	1	-45	-1.1	-4	13
NC(=O)C1CCN(C(=O)CCc2nc3ccccc3c(=O)[nH]2)CC1	11073	-4	5	/	2.3	2	0
COC(=O)Nc1nn(Cc2ccccc2F)cc1Br	15596	5	3	8	2.7	6	7
C=CCOc1ccc(/C=C/C(=O)OCC(=O)N2CCCc3ccccc32)cc1	5083	-1	10	-17	4.0	3	0
O=C(CCNC(=O)c1ccco1)Nc1ccc(C(F)(F)F)cc1	3915	-6	3	11	-1.1	-10	1
CC(C)C(=O)N1CC(=O)Nc2ccc(F)cc2C1c1ccc(F)cc1 (stereo not given)	3585	-10	4	-26	1.4	5	5
Oc1ccccc1NCC(O)Cn1ccc2ccccc21 (stereo not given)	22217*	-4	6	-19	25	16	22
O=C(CNC(=O)c1ccco1)OCC(=O)c1ccc(Cl)cc1	2060	1	1	-7	2.7	13	10
CCCN1Cc2cccc(C(=O)Nc3ccc(CC)cc3)c2C1=O	8617	-2	4	-13	-1.0	5	1
OCC[C@@H]1C[C@@H](O)[C@H](O)[C@@]2(OCc3ccccc32)O1	2858	-3	/	-21	/	/	/
CC1(c2ccccc2)NC(=O)N(CC(=O)Nc2ccccc2C(=O)NC2CC2)C1=O (stereo not given)	5661	2	4	-10	2.0	-1	1
CCOC(=O)C1CCN(S(=O)(=O)c2cc3c(cc2C)NC(=O)CO3)CC1	4295	-7	-9	-4	-2.0	-2	-3
Cc1cc(=O)oc(C)c1C(=O)NCCCN1CCN(c2ccccc2F)CC1	9955	-13	4	-9	-1.6	2	14
O=c1c(Cl)c(NN=Cc2ccc(Br)cc2)cnn1-c1ccccc1	/	/	-20	/	6.2	6	8
O=C(CNC(=O)c1ccccc1)NCC(=O)OCC(=O)c1ccccc1Cl	4966	-7	4	-27	4.6	6	8
CN1CCC(N(C)C(=O)/C(C#N)=C/c2ccc(OC(F)F)cc2)CC1	4514	-18	-6	-8	-0.6	-6	-10
COc1cc2c3nnc(-c4ccccc4)c-3cn(Cc3ccccc3F)c2cc1OC	/	/	7	/	8.9	-12	-2
Cc1ccccc1CN1C(=O)c2ccccc2S(=O)c2ccc(C(=O)NCCCN3CCOCC3)cc21 (stereo not given)	5165	3	-4	-11	-4.7	-15	-12
Cc1noc(C)c1S(=O)(=O)N(C)C[C@H]1Oc2c(cccc2N(C)C)C(=O)N([C@H](C)CO)C[C@@H]1C	3209	/	3	-12	4.4	6	7
CCCc1nnc(NC(=O)CS(=O)(=O)c2ccccc2)s1	3842	-1	10	-25	-1.2	7	2

Another view of part of the listing above.
SMILES,Bead autofluor,BJeLR lethal,Sa ugtP lethal,PrP 5UTR inh,RN4220 kill,Mtb hypoxia rep,Mtb hypoxia rep growth
O=c1c(Cl)c(NN=Cc2ccc(Br)cc2)cnn1-c1ccccc1,/,/,-20,/,6.2,6,8
CN1CCC(N(C)C(=O)/C(C#N)=C/c2ccc(OC(F)F)cc2)CC1,4514,-18,-6,-8,-0.6,-6,-10
O=C(CNC(=O)c1ccccc1)NCC(=O)OCC(=O)c1ccccc1Cl,4966,-7,4,-27,4.6,6,8

Screens as filed in PubChem BioAssay.
